Sa growth 42C: S. aureus growth inhibition; S. aureus RN4220 growth, OD600, 20 h, 42 °C; active compounds read low; relative growth, % (test concentration not listed); 170,000 compounds, 0.53% hits; AID 720641;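 active means growth at 42 °C up to 50% and 20 or more points under that at 30 °C, or under 10% at both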;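 further: 300 nL library stock went into each well; scaled to the means of positive and negative controls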
GIV-Gai inh: blocks GIV peptide binding to rat Galpha-i3; P08753; Galpha-i3/FITC-GIV peptide fluorescence polarization, 90 min; active compounds read low; scaled: aluminum fluoride 0%, vehicle 100%; percent of control (FP), % (test concentration not listed); 210,000 compounds, 0.42% hits; AID 1224905;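 active means replicate mean at 85% of control or lower, very high polarization wells dropped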;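 further: lower values mean more displacement of the GIV peptide from Galpha-i3; wells of about 15 µL received 100 nL stock; the first replicate is given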
Target sequence (P08753 whole entry, looked up): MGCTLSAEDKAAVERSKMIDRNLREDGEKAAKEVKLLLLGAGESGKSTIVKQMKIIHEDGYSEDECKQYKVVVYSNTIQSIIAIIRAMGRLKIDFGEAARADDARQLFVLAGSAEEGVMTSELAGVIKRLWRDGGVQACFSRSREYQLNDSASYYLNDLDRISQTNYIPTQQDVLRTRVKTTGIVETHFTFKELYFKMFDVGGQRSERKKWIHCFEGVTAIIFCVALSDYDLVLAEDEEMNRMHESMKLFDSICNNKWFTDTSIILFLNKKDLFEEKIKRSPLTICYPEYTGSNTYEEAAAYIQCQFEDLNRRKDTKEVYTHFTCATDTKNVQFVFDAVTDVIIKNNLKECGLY
HCMV UL50-53 inh: inhibitors of HCMV UL50-UL53 nuclear egress complex interaction; HTRF UL50-UL53 interaction, normalized percent inhibition; inhibition, % (no concentration beside the values); 190,000 compounds, 0.15% hits; AID 1918969;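 active means both replicates at 50% or more, plus weaker picks with an unusually low signal ratio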;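 further: stock transfer was 100 nL into about 20 µL; 0% = negative control wells and 100% = wells with untagged competitor protein; inactives centre near -12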
Sa growth 42C second temp: also measured in Sa growth 42C; calls as there; relative growth, %; measured here: growth at 30 °C;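 optical density after 20 h as mean of two plates; 100% = untreated growth and lower means inhibition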
Active calls of the source: *; nt = not tested or not shown; & = joins results of further samples. The order is random. About 0.83% of those tested had a hit in this group.

Below each SMILES – Sa growth 42C	Sa growth 42C second temp	GIV-Gai inh	HCMV UL50-53 inh
CCOC(=O)c1cccc(NC(=O)c2ccc3nc(CCc4ccccc4)oc3c2)c1
→ 91	91	99	nt
Cc1ccccc1NS(=O)(=O)C(F)(F)F
→ 93	54	nt	-20
O=Nc1c(O)[nH]c2c(F)cccc12
→ 81	48	104	-105
CCOc1ccc(C(=O)NCC2CCN(c3nc(C)cc(C)n3)CC2)cc1
→ 111	90	106	8
Brc1ccc(-c2nnc(C34CC5CC(CC(C5)C3)C4)o2)cc1
→ 95	97	113	16
CCOc1ccc(S(=O)(=O)NCc2csc(-c3ccccc3)n2)cc1
→ 107	93	104	3
O=C1CC(c2nc(-c3ccccc3)no2)CN1c1ccc2c(c1)OCCO2 (stereo unspecified)
→ 98	87	99	nt
O=C(/C=C/c1cccs1)OCc1csc(-c2ccccc2)n1
→ 112	101	nt	-31
COC(=O)C1=C(N)OC2=C(C(=O)CC(C)(C)C2)C1c1ccc(Cl)cc1Cl (stereo unspecified)
→ nt	nt	103	-13
Cc1cc(C)nc(NCCO)n1
→ 104	99	nt	3
Cn1c(=O)c2c3c(cnc2n(C)c1=O)C(=O)CCC3
→ nt	nt	113	-15
Cc1cccc(C)c1Nc1sc(C(=O)c2ccccc2)c(N)c1C(=O)Nc1ccc(F)cc1
→ 86	79	104	nt
Cc1cccc(-n2ncc(C(=O)N3CCN(C4CCCCC4)CC3)c2C2CCN(C(=O)OC(C)(C)C)CC2)c1
→ 112	95	106	nt
Cc1ccc(-c2nn(-c3ccccc3)cc2/C=C\C(N)=O)cc1
→ 120	48	nt	-56
CCN(CC)Cc1c(O)ccc2cc(-c3nc4ccccc4s3)c(=O)oc12
→ 79	43	-18*	nt
Cn1cnc(S(=O)(=O)N2CCC(C(=O)NCc3ccc(Cl)cc3)CC2)c1
→ 77	90	102&110	-15
Cc1[nH]c(=O)c(C#N)c(C)c1CCC(=O)N1CCCSC1=Nc1ccccc1C(C)C
→ 97	94	nt	-4
CCOC(=O)c1cnc2cc(C(F)(F)F)ccc2c1Nc1ccc(F)cc1F
→ 100	93	100	-12
CCOC(=O)c1ccc2c(c1)[C@@H]1C=CC[C@@H]1[C@H](c1cccc(OC)c1OC)N2
→ 88	76	102	-25
COc1cccc(C2C(C(=O)Nc3ccc(C)cc3C)=C(C)Nc3nc4ccccc4n32)c1OC (stereo unspecified)
→ 98	89	100	-9
OCCN1CCN(CC/C=C2/c3ccccc3Sc3ccc(C(F)(F)F)cc32)CC1
→ nt	nt	100	-19
O=C(NN1CCOCC1)c1cccc2c1C(=O)N(Cc1cccnc1)C2
→ 93	94	103	nt
CCOc1cccc(C(=O)N2CCOCC2)c1
→ 98	103	101	-5
O=C(CN1c2ccc(F)cc2-c2ccccc2S1(=O)=O)N1CCCC1
→ nt	nt	109	-12
O=C(CSc1nc2ccccc2n1-c1ccccc1)N1CCOCC1
→ 91	79	nt	-41
CCn1nnc(NCc2ccc(-c3ccc(C)c(Cl)c3)o2)n1
→ nt	nt	100	4
COc1ccc(OC)c(NC(=O)Cn2c(=O)n(-c3ccc(Cl)cc3)c(=O)c3c(C)c(C)sc32)c1
→ 89	91	98	-22
CN1/C(=C(\C#N)c2nc(C#N)c(C#N)nc2Cl)Nc2ccccc21
→ 68	36	nt	-39
CCCCC(=O)Nc1c(C(=O)N2CCN(c3ccccc3F)CC2)oc2ccccc12
→ 51	30	100	-8
CCCN1CCN(C(=O)C2CCCN(S(=O)(=O)c3cn(CC)cn3)C2)CC1 (stereo unspecified)
→ nt	nt	100	-3

Part of the list above in order of number of heavy atoms, largest number first:
Below each SMILES – Sa growth 42C	Sa growth 42C second temp	GIV-Gai inh	HCMV UL50-53 inh
Cc1cccc(-n2ncc(C(=O)N3CCN(C4CCCCC4)CC3)c2C2CCN(C(=O)OC(C)(C)C)CC2)c1
→ 112	95	106	nt
COc1ccc(OC)c(NC(=O)Cn2c(=O)n(-c3ccc(Cl)cc3)c(=O)c3c(C)c(C)sc32)c1
→ 89	91	98	-22
Cc1cccc(C)c1Nc1sc(C(=O)c2ccccc2)c(N)c1C(=O)Nc1ccc(F)cc1
→ 86	79	104	nt
CCOC(=O)c1cccc(NC(=O)c2ccc3nc(CCc4ccccc4)oc3c2)c1
→ 91	91	99	nt
CCOC(=O)c1ccc2c(c1)[C@@H]1C=CC[C@@H]1[C@H](c1cccc(OC)c1OC)N2
→ 88	76	102	-25
CCN(CC)Cc1c(O)ccc2cc(-c3nc4ccccc4s3)c(=O)oc12
→ 79	43	-18*	nt
CN1/C(=C(\C#N)c2nc(C#N)c(C#N)nc2Cl)Nc2ccccc21
→ 68	36	nt	-39
Cc1ccc(-c2nn(-c3ccccc3)cc2/C=C\C(N)=O)cc1
→ 120	48	nt	-56
O=C(/C=C/c1cccs1)OCc1csc(-c2ccccc2)n1
→ 112	101	nt	-31
Cn1c(=O)c2c3c(cnc2n(C)c1=O)C(=O)CCC3
→ nt	nt	113	-15
CCOc1cccc(C(=O)N2CCOCC2)c1
→ 98	103	101	-5

More compounds.
Below each SMILES – Sa growth 42C	Sa growth 42C second temp	GIV-Gai inh	HCMV UL50-53 inh
COc1ccccc1Nc1cccccc1=O
→ 83	95	nt	-50
Cc1nnc(NC(=O)C2CC(=O)N(c3ccc(C)c(Cl)c3)C2)s1 (stereo unspecified)
→ 65	96	108	nt
CCOC(=O)c1ccc(N(C)S(=O)(=O)c2ccc(OC)cc2)cc1
→ 132	95	103	-8
COc1cccc(N=Nc2ccc3cccnc3c2O)c1
→ 116	85	nt	-27
CC1(C)C(=O)N(CC(=O)N2CCCCC2)c2ccccc21
→ nt	nt	103	-25
COC(=O)[C@@H]1[C@H]2C[C@H]3c4[nH]c5ccccc5c4CCN3C[C@@H]2CC[C@@H]1O
→ 92	85	108&99	-38&0&-26&2
Cc1ccc(CNC(=O)NCC2CCN(Cc3cc(C)ccc3C)CC2)cc1
→ nt	nt	97	-17
Brc1ccc(-c2ccc(SCc3nc(-c4ccccc4)no3)nn2)cc1
→ nt	nt	106	-12
CCc1ccccc1NC(=O)CCS(=O)(=O)c1cccc2nonc12
→ 118	92	102	-56
Cc1csc2sc(-c3ccnc(SCc4ccccc4)n3)c(C)c12
→ 99	88	101	-40
CCCCS(=O)(=O)Nc1ccccc1OCC
→ 102	92	100	-16
COCC(=O)N1CCN(c2ccc(F)cc2)CC1
→ 98	95	99	-2
CC(=O)NN1C(=O)c2ccccc2NC1c1ccccc1 (stereo unspecified)
→ 121	86	101	nt
COc1cc(C=C2C(=O)N(C)C(=O)N(C)C2=O)cc(Cl)c1OCCOc1ccccc1
→ nt	nt	104	-12
Cc1ccc(-n2ncc(C(=O)N3CCN(c4cc(Cl)ccc4C)CC3)c2C2CCN(C(=O)OC(C)(C)C)CC2)cc1
→ 108	106	113	nt
Cc1ccc(N(Cc2cccs2)C(=O)COc2ccccc2[N+](=O)[O-])cc1
→ 101	85	103	-29
COc1ccc(NC(=O)c2cc3c(=O)n(Cc4cccnc4)ccc3nc2C)c(OC)c1
→ 108	91	99	nt
CN(C(=O)CSc1nnc2ccccn12)c1ccccc1
→ 76	87	nt	-20
O=C(COC(=O)CC12CC3CC(CC(C3)C1)C2)NCc1ccc(F)cc1
→ 105	87	nt	-37
CCCCC(CC)CN1CC(O)=C(c2nc3ccccc3s2)C1=N (stereo unspecified)
→ 91	82	145	nt
O=c1c(NCCc2ccccc2)nccn1-c1ccccc1
→ 102	92	111	-46
Cc1ccc(OCC(=O)Nc2ccc(C(=O)OCc3cc(=O)n4c(C)csc4n3)cc2)cc1
→ 93	93	102	nt
COc1ccc(CCNC(=O)c2ccc(CN3CCc4ccccc4C3)cc2)cc1OC
→ nt	nt	96	-19
CCc1ccccc1NC(=O)CSc1ncc(S(=O)(=O)c2ccccc2)c(=O)[nH]1
→ 95	90	97	-19
Cc1ccc(-c2nc(C(=O)NCc3ccc(Cl)cc3)c3n2CCCCC3)cc1
→ 93	87	103	nt
Cc1ccc(-c2cc(C(F)F)nc(N(C)Cc3ccccc3)n2)cc1
→ 82	84	96	-18
O=C(Nc1cc(Cl)ccc1O)c1cc2nc(-c3ccc4c(c3)OCO4)cc(C(F)(F)F)n2n1
→ 86	91	104	-2
O=C(Cc1ccccc1)OCc1ccc(Cl)cc1
→ 105	92	nt	-18
N#CC1(C#N)C(C(=O)C23CC4CC(CC(C4)C2)C3)C12CCOCC2 (stereo unspecified)
→ 90	85	100	-4
CCOC(=O)c1[nH]c(Cc2[nH]c(C(=O)OCC)c(C)c2C)c(C)c1C
→ 96	85	105	-6

Next part:
Below each SMILES – Sa growth 42C	Sa growth 42C second temp	GIV-Gai inh	HCMV UL50-53 inh
CN(Cc1ccccc1)Cc1cc(=O)n2[nH]c(-c3ccc(Cl)cc3)nc2n1
→ nt	nt	96	-13
Cc1cc(=O)oc(C)c1C(=O)NCCCN1C(C)CCCC1C (stereo unspecified)
→ 108	89	103	1
CN1C(=O)c2ccc(NC(=O)/C=C/c3ccc(Br)o3)cc2C1=O
→ 112	93	nt	-36
CCCC(=O)Nc1ccc(-c2cn3cccnc3n2)cc1
→ 94	89	110	-54
CCOc1ccc(Sc2cc(C(=O)NCc3ccc(C)cc3)c3ccccc3n2)cc1
→ 114	98	100	nt
CC1=CC(C)C(C2OCCC(C)O2)C(C)C1 (stereo unspecified)
→ 78	95	98	10
CC(=O)Nc1ccc(Nc2nc(Cl)nc(Nc3ccc(NC(C)=O)cc3)n2)cc1
→ nt	nt	102	-18
CC(NC(=S)NC1CCCCC1)c1ccncc1 (stereo unspecified)
→ 101	94	107	-2
COc1ccc(/C=C/C(=O)NCCCN2CCCC2)cc1
→ 97	88	104	-43
NC(=O)c1c(NC(=O)CN2CCCC2)sc2c1CCCC2
→ 107	89	106	-3
N#Cc1c(C(F)(F)F)cc(-c2ccc(F)cc2)nc1SCC(=O)Nc1ccccc1
→ 93	86	109	-49
CC(NC(=O)Nc1cccc2ccccc12)C1CCCO1 (stereo unspecified)
→ 110	103	100	-38
CCCCOc1ccccc1C1CC(=O)Nc2cc(C)c(C)cc21 (stereo unspecified)
→ 82	99	102	nt
Cc1ccc(-n2nc3c(N4CCC(C(=O)NCc5cccnc5)CC4)nnc(C)c3c2C)cc1
→ nt	nt	130	4
O=C(c1ccncc1)N1CCC(c2nc(-c3ccc(F)cc3)no2)CC1
→ nt	nt	101	-13
CSc1nnc2c(n1)OC(c1c[nH]c3ccccc13)Nc1ccccc1-2 (stereo unspecified)
→ nt	nt	106	-43
COCCCNC(=O)N1Cc2c(sc3c2CCN(C)C3)-n2cccc2C1c1ccc(Cl)cc1 (stereo unspecified)
→ nt	nt	103	-14
CCCCSc1nc2c(c(=O)n1C1CCOC(C)(C)C1)C1(CCCC1)Cc1ccccc1-2 (stereo unspecified)
→ nt	nt	113	22
Cc1ccc(NC2=NC(C(=O)Nc3ccc(F)c(Cl)c3)CC(=O)N2)cc1 (stereo unspecified)
→ 97	95	100	8
Cc1ccc2nc(NC(=O)OC(C)(C)C)sc2c1
→ 70	74	nt	-37
CCOc1ccc2c(c1)NC(c1ccccc1)=NC(c1ccc(F)cc1)=N2
→ nt	nt	104	5
O=C1NC(=O)C(=Cc2cc(Cl)c(OC(=O)c3ccccc3)c(Cl)c2)C(=O)N1
→ nt	nt	108	5
CC1CN=C(SCc2ccccc2)N1 (stereo unspecified)
→ 103	84	99	-16
Cc1cc(C(=O)NNc2c(Cl)cc(Cl)cc2Cl)nn1C
→ 91	95	111	-2
CCOC(=O)c1c(N)nn(C(=O)CC)c1-c1ccccc1
→ 89	85	nt	-12
COc1ccc(OCC(=O)NC(=S)N2CCCc3ccccc32)cc1
→ 99	72	98	nt
CCNc1cc(NCC)c2noc3c2c1C(=O)c1ccccc1-3
→ 107	79	207	-41
O=C(CCC(=O)N1CCc2cc(S(=O)(=O)NCCC3=CCCCC3)ccc21)N1CCOCC1
→ nt	nt	101	-32
CCOCCCNc1nc2c(S(=O)(=O)c3ccc(CC)cc3)nnn2c2ccc(Cl)cc12
→ 90	87	105	-14
CCCCN(C)S(=O)(=O)c1cc(-c2nn(C)c(=O)c3ccccc23)ccc1C
→ 84	104	109	4
CN(C)c1ccc(C(=S)N2CCN(C(N)=S)CC2)cc1
→ 85	88	100	-18

High-throughput results: PubChem, ICCB-Longwood Screening Facility, Harvard Medical School
